# KCNQ2 enhance = potentiators of rat KCNQ2 potassium channel; 0.54% of 310,000 active; B-score at 10 µM; CHO-K1 KCNQ2, FluxOR thallium flux fluorescence; hits give high values; O88943;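 active = fluorescence ratio B-score at least 3 SD of library B-scores, with initial fluorescence B-score within 3 SD, cut at about 5.3 in these data; same plate scores as AID 2156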;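 note: B-score of peak minus minimum over baseline fluorescence ratio after K+ and Tl+ stimulus; positive B-score means potentiation of KCNQ2 with more thallium influx and brighter signal; only the inactives scoring about 0 or higher are listed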
# Target sequence (O88943 whole entry, looked up): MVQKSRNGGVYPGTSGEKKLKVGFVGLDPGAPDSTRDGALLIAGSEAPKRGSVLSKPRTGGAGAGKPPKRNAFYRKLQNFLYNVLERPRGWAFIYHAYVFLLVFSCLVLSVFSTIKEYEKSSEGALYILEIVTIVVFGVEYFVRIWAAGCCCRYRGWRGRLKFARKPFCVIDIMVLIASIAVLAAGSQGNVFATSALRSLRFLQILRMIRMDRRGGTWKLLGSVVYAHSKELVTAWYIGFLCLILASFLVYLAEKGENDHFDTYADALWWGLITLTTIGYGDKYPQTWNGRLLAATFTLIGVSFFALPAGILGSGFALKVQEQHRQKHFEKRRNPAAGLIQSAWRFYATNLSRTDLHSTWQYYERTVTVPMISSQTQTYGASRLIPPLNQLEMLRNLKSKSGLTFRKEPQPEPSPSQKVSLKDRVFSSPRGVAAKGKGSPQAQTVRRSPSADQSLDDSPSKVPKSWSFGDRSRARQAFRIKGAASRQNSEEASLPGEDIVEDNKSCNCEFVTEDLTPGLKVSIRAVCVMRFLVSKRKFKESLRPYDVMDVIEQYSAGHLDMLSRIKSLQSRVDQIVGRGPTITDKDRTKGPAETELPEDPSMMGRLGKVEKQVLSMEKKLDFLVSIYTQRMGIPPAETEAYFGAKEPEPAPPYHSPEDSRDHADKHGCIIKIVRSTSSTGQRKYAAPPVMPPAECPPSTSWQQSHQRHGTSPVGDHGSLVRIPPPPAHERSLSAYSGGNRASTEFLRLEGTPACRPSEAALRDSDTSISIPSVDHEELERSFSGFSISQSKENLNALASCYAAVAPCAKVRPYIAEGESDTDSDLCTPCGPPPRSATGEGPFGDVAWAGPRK
# KCNQ2 enhance baseline = second read-out of KCNQ2 enhance, no call of its own (marks repeat the call); B-score; compound at 10 µM; measured here: initial fluorescence intensity artifact check;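 brightness before thallium and not channel activity; 0 = typical well and far values either way flag optical interference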
# Active calls of the source: *. Only part of the results is shown (hit frequency here may not be typical).
item	canonical_smiles	KCNQ2 enhance	KCNQ2 enhance baseline
1	Cc1cccc(NC(=O)CSCC(=O)N2CCCc3ccccc32)c1	0.01	-0.03
2	C=CCn1c(SCC(=O)N2CCc3ccccc3C2)nc2sc(C)c(C)c2c1=O	0.02	0.84
3	Cc1ccccc1NC(=O)c1ccc2c(O)c(S(=O)(=O)c3ccccc3)c(=O)[nH]c2c1	0.07	1.1
4	CC1CCN(CCCNC(=O)COc2cc(=O)n(C)c3ccccc23)CC1	2.2	-0.07
5	CN(C)C1=NCCN1CCC1CCCC1	0.26	-0.61
6	CC1(C)CC(=O)C2=C(C1)N(Cc1cccnc1)C(=O)C2(NC(=O)c1ccc(F)cc1)C(F)(F)F (stereo not given)	0.03	-0.72
7	COc1ccc(/C=C/C(=O)c2cc(F)ccc2OC(=O)c2ccccc2)cc1OC	0.09	-0.3
8	CCOC(=O)CSc1nnc(-c2cc(OC)c(OC)c(OC)c2)o1	0.1	0.39
9	Cn1cc(CN2CCCCC2C(=O)Nc2ccc(-n3cccn3)cc2)cn1 (stereo not given)	0.31	0.38
10	COc1ccc(C(c2c(N)[nH]c(=S)[nH]c2=O)c2c(N)[nH]c(=S)[nH]c2=O)cc1	0.28	-0.48
11	CC(=O)c1cccc(NC(=O)C2CCN(C(=O)c3ccc([N+](=O)[O-])cc3)CC2)c1	0.11	0.65
12	COc1cccc(-n2nnc3c(=O)n(Cc4ccc(Cl)cc4)cnc32)c1	0.93	1.8
13	COc1cccc(C(=O)CSc2nnc(COc3cccc4cccnc34)o2)c1	0.29	0.07
14	CCN1C(=O)[C@H]2[C@@H](c3ccc(-c4ccc5c(c4)OCO5)cc3)N3CCC[C@@]3(C(=O)OC)[C@H]2C1=O	0.3	-3.1
15	NC(=O)c1ccc(Br)c(S(=O)(=O)N2CCCCC2)c1	0.02	-0.95
16	N#Cc1c(-c2ccccc2)cc(C2CC2)nc1N	1.1	0.25
17	Cc1ccc(OCC(=O)NCc2ccccc2)c([N+](=O)[O-])n1	2	-1.3
18	CCOC(=O)C(CCCCCCP(=O)(c1ccccc1)c1ccccc1)NC(C)=O (stereo not given)	0.01	0.16
19	CCOC(=O)CNC(=O)CSc1nc2c(C)cccc2cc1CC	0.04	-0.24
20	O=C(NCc1ccc2c(c1)OCO2)C1CCCN1S(=O)(=O)c1ccc(Cl)cc1 (stereo not given)	0.49	-1.3
21	COc1ccc(-c2ccnc3nc(/N=C/N(C)C)nn23)cc1	0.79	0.01
22	O=C(NCCc1ccc(Cl)cc1)C1CCC(=O)N(C2CCCCCC2)C1 (stereo not given)	0.66	0.77
23	Cc1cc(OCC(=O)Nc2ccc(N3CCN(C)CC3)cc2)ccc1Cl	3.4	1.1
24	Cc1ccc2cc(CN(CC(C)C)S(=O)(=O)c3ccccc3)c(=O)[nH]c2c1	0.38	0.01
25	COc1ccc(C(=O)NCCN2CCCC2)cc1OC	1.1	-0.99
26	COc1ccc2nc3c(nc2c1)CCCC3	1.8	-1.4
27	CCCOc1ccc(C(C)(O)CN2CCOCC2)cc1 (stereo not given)	0.72	0.03
28	Cc1nc2scc(C)n2c(=O)c1S(=O)(=O)NCCc1ccc(Cl)cc1	0.56	0.76
29	COC(=O)c1cc(C(=O)NCCC(C)C)cc([N+](=O)[O-])c1	0.87	-0.02
30	CC1(C)CC(=O)C=C(N2CCCC2)C1	0.02	1.5

# Laid out differently: 7 of the compounds above
22. O=C(NCCc1ccc(Cl)cc1)C1CCC(=O)N(C2CCCCCC2)C1 (stereo not given)
30. CC1(C)CC(=O)C=C(N2CCCC2)C1
24. Cc1ccc2cc(CN(CC(C)C)S(=O)(=O)c3ccccc3)c(=O)[nH]c2c1
29. COC(=O)c1cc(C(=O)NCCC(C)C)cc([N+](=O)[O-])c1
21. COc1ccc(-c2ccnc3nc(/N=C/N(C)C)nn23)cc1
28. Cc1nc2scc(C)n2c(=O)c1S(=O)(=O)NCCc1ccc(Cl)cc1
25. COc1ccc(C(=O)NCCN2CCCC2)cc1OC

entry no.	22	30	24	29	21	28	25
KCNQ2 enhance	0.66	0.02	0.38	0.87	0.79	0.56	1.1
KCNQ2 enhance baseline	0.77	1.5	0.01	-0.02	0.01	0.76	-0.99

# Continued.
item	canonical_smiles	KCNQ2 enhance	KCNQ2 enhance baseline
31	CC1(C)CC(CCNC(=O)c2ccco2)CC(C)(C)N1	1.6	1.2
32	O=C(N/N=C/c1cc(Cl)ccc1O)c1ccccc1Br	3.8	2.6
33	CCOC(=O)C1CCN(C(=O)CN(Cc2ccccc2)S(C)(=O)=O)CC1	0.8	-1.4
34	CCOC(=O)Cn1cnc2c(C#N)c3n(c2c1=O)CCCCC3	0.3	-3
35	O=C(CCSCCc1ccccn1)Nc1c(F)c(F)c(F)c(F)c1F	0.89	-0.88
36	O=C(NCCC1=CCCCC1)c1ccc(Cl)c(S(=O)(=O)N2CCCCC2)c1	1.4	-0.54
37	Cc1c(C#N)c(O)n(C)c(=O)c1N=Nc1ccc(S(N)(=O)=O)cc1	0.2	0.53
38	CCOC(=O)C1(CCOc2ccccc2)CCN(Cc2ccc(CO)o2)CC1	0.13	-0.78
39	O=C(NCCCN=C1NS(=O)(=O)c2ccccc21)c1ccco1	1.7	0.03
40	CCOC(=O)C1CCN(S(=O)(=O)C(F)(F)c2nc3ccccc3s2)CC1	1.3	-1
41	Cc1ccc(S(C)(=O)=NC(=O)NC(=O)c2c(F)cccc2Cl)cc1 (stereo not given)	0.07	-3.1
42	Cc1ccc(S(=O)(=O)Oc2ccc(/C=N/NC(=O)c3nn(C)cc3Cl)cc2)cc1	0.49	0.72
43	CCOC(=O)C1Nc2ccc(C(F)(F)F)cc2C2c3ccccc3CC12 (stereo not given)	2.2	0.96
44	Cc1cc(C(=O)N/N=C/c2cc(Br)ccc2OC(=O)c2ccc(Br)cc2)n[nH]1	0.21	0.84
45	Cc1cc(C(F)(F)F)nn1CC(=O)Nc1ccc2c(c1)OCO2	1.1	2.6
46	CC(=O)N1c2ccc(S(=O)(=O)NCCC(=O)Nc3ccc(C)cn3)cc2CC1C (stereo not given)	1.2	-0.44
47	COCC(=O)Nc1ccc(N2CCN(c3ccccc3)CC2)c(F)c1	1.4	-2.1
48	COc1ccc(C(=O)Nc2cnc3sc(C)nn3c2=O)cc1	0.28	0.92
49	O=[N+]([O-])c1ccc(Cl)c(S(=O)(=O)NCC2CCCO2)c1 (stereo not given)	0.02	0.68
50	CC(C)(C)OC(=O)N1CCCN(C(=O)Nc2ccccc2)CC1	1.1	0.46
51	CCOc1ccccc1C(=O)Nc1ccc(S(=O)(=O)Nc2cc(OC)nc(OC)n2)cc1	0.69	0.3
52	CC1(c2nnc(Cc3ccccc3)o2)CC(c2cccc([N+](=O)[O-])c2)=NO1 (stereo not given)	1.4	-0.04
53	Cc1ccccc1S(=O)(=O)Cc1ccc(C(=O)NCCCN2CCCC(C)C2)o1 (stereo not given)	0.16	2.2
54	O=C(CN(C(=O)CCC(=O)Nc1nccs1)c1cccc(F)c1)NCC1CCCO1 (stereo not given)	0.28	0
55	Nc1sc2c([n+]1CCCS(=O)(=O)[O-])CCCC2	0.23	-1.6
56	O=C(OCC(=O)N1CCCC1=O)C1CCN(S(=O)(=O)c2c(Cl)cccc2Cl)CC1	0.68	1.1
57	COc1cccc(Nc2nc(N)nc(CCl)n2)c1	2	0.16
58	Cc1sc2nc(CN3CCCCC3)nc(Nc3ccc4c(c3)OCCO4)c2c1C	0.63	6.3
59	Cc1nc2sc(-c3ccccc3)nn2c(=O)c1Br	1.9	0.02
60	O=C(C[n+]1cc(-c2ccccc2)n2c1CCCCC2)c1ccc(Br)cc1	0.18	-0.92
61	CCCc1c(C(=O)O)cnn1-c1ccc(Cl)cc1	0.04	0.75
62	CCCn1c(SCC(=O)Nc2nccs2)nnc1-c1cccnc1	1.2	-0.74
63	Cc1cc(N2C(=O)C3C4C=CC(C4)C3C2=O)ccc1NC(=O)c1cccs1 (stereo not given)	0.69	-0.17
64	COc1ccc(CCNCC(=O)Nc2ccc(C(=O)N3CCCCC3)cc2)cc1	0.34	0.87
65	S=C(Nc1ccc2nsnc2c1)N1CCCCCC1	0.11	-0.4
66	CNC(=S)N(Cc1cc2cc(C)ccc2n2nnnc12)CC(C)(C)CN(C)C	0.01	-0.99
67	CC(C)NC(=O)C1CCN(S(=O)(=O)c2ccc(N3CCCC3=O)cc2)CC1	0.45	2.7
68	Cc1ccc(S(=O)(=O)Nc2ccc(=O)n(Cc3ccc(Cl)c(Cl)c3)c2)cc1	0.05	-0.18
69	C=CCNC(=O)c1ccc(CN2CCC(Cc3ccccc3)CC2)cc1	1.2	-0.89
70	N#Cc1ccc(NC(=O)Nc2cccc(C#N)c2)cc1	2.2	0.13
71	COC(=O)c1ccc2c(=O)n(CCCCCC(=O)N3CCN(c4ccccc4)CC3)c(=O)[nH]c2c1	0.02	0.07
72	Cc1c(NC(=O)Cn2[nH]c(=O)c3ccccc3c2=O)c(=O)n(-c2ccccc2)n1C	0.14	-1.3
73	Oc1ccccc1C=NC1=NN(c2cccc(C(F)(F)F)c2)CC1	0.73	0.02
74	Cc1ccc(NC(=O)c2cnn(C)c2)cc1[N+](=O)[O-]	1.2	-1.1
75	COc1ccc2[nH]cc(CCNS(=O)(=O)c3ccc(NC(C)=O)cc3)c2c1	1.2	0.61
76	COc1ccc(-n2c(=O)c3c4c(sc3n(Cc3cccc(F)c3)c2=O)CN(C(C)=O)CC4)c(OC)c1	0.01	-0.63
77	O=S(=O)(Nc1ccc(-c2ccc3nncn3n2)cc1)c1cccs1	1	-0.5
78	COCC1CCN(C(=O)c2cc(COc3cc(C)c(Cl)c(C)c3)on2)C1 (stereo not given)	1.5	0.51
79	Nc1nc(NCC(=O)O)nc(NCc2ccccc2)c1[N+](=O)[O-]	0.03	0
80	O=C(CCOc1ccccc1)Nc1ccc(S(=O)(=O)N2CCCC2)cc1	0.39	0.29

# Going on with the list:
item	canonical_smiles	KCNQ2 enhance	KCNQ2 enhance baseline
81	COC(=O)Cn1c(=N)n(CCN2CCCCC2)c2ccccc21	0.34	-0.52
82	Cc1ccc(CNC(=O)C2CCCN(S(C)(=O)=O)C2)cc1 (stereo not given)	0.03	0.69
83	COc1ccc(/C=C/c2ccc3c(Br)ccc(O)c3n2)cc1	1.3	0.98
84	CC1(C(=O)NC2CCCCCCC2)CCC(=O)N1Cc1cccnc1 (stereo not given)	0.61	-1.3
85	Cc1noc(C(=O)N2CCN(c3ccc(F)cc3)CC2)c1Cl	0.94	0.01
86	CC(C(=O)Nc1cccnc1)N1C(=O)C2C3C=CC(C3)C2C1=O (stereo not given)	0.65	0.94
87	CC(=O)Oc1cccc(C(=O)Nc2ccc3c(c2)C(=O)N(CC2CCCO2)C3=O)c1 (stereo not given)	0.27	-1.8
88	O=C(CN1C(=O)/C(=C/c2ccccc2Cl)SC1=S)NC1CCS(=O)(=O)C1 (stereo not given)	0.83	0.4
89	CC(C)OCCCn1c(=S)[nH]c2ccc(N3CCOCC3)cc2c1=O	0.26	0.11
90	CC(C)(OC1OC(CO)C(O)C(O)C1O)[C@H]1Oc2ccc3ccc(=O)oc3c2[C@H]1O (stereo not given in full)	0.12	1.8
91	CCn1cc(C(=O)NCc2ccc3c(c2)OCO3)c(=O)c2cc(S(=O)(=O)N(C)C)ccc21	1.4	-2.5
92	COc1ccc(NC(=O)CSCC(=O)N=c2sccn2C)cc1	0.46	-0.8
93	Cc1ccc(NC(=S)NCc2cccs2)cc1	8.9*	-1.5*
94	CC(=O)OC1CC2(C)/C(=N\O)CCC2C2CCc3cc(O)ccc3C12 (stereo not given)	1.4	-0.49
95	CCOC(=O)C1CCN(C(=O)c2ccccc2NS(=O)(=O)c2ccc(F)c(F)c2)CC1	1.5	0.06
96	Cc1ccc2nc(C)c(C(=O)N/N=C/c3ccccc3[N+](=O)[O-])cc2c1	0.93	-0.64
97	Cc1occc1-c1nnc(SCC(N)=O)n1Cc1ccccc1	0.29	1.7
98	CCCCCCNC(=O)CCc1nc2cccnc2n1Cc1ccc(OC)cc1	2.7	0.01
99	CC(C)(C)C(=O)Nc1scc(-c2ccc(-c3ccccc3)cc2)c1C(=O)O	2	0.21
100	CCOc1ccc(C(CC(=O)O)NC(=O)COc2ccccc2)cc1OC (stereo not given)	0.57	0.72
101	Cc1ccccc1C(=O)N1CCC(C(=O)N(C)CCOc2ccccc2)CC1	0.06	0.03
102	COc1ccc(-c2sc(NC(=O)c3ccc(C)cc3)nc2-c2ccc([N+](=O)[O-])cc2)cc1	0.1	0.84
103	Cc1c(C(=O)OCCOC(C)C)[nH]c2c1C(=O)CC(c1ccco1)C2 (stereo not given)	0.12	1.4
104	Cc1ccc(C2c3sc(=O)[nH]c3SC3C4CC(C5C(=O)N(C(C)C(=O)O)C(=O)C45)C23)cc1 (stereo not given)	1.9	0.54
105	Nc1nnc(SCCN2C(=O)c3ccccc3C2=O)s1	0.06	-0.08
106	COc1cc(C(C)=O)ccc1OCC(O)Cn1nc(C)c(C(C)=O)c1C (stereo not given)	0.04	0.2
107	Cc1ccc(OCCn2cc(/C=C(\C#N)C(=O)NCC3CCCO3)c3ccccc32)cc1 (stereo not given)	1.1	-0.38
108	CCOC(=O)c1cnc2ccc(C)cc2c1NCCN1CCOCC1	1.6	-0.17
109	CS(=O)(=O)N1CCC(C(=O)Nc2ccc(C(N)=O)cc2)CC1	1.5	0.45
110	C=CCn1c(=O)c2ccccc2n2c(SCC(=O)O)nnc12	0.41	-0.41
111	Cn1c(=O)c2c(nc(SCC(=O)NCC3CCCO3)n2C)n(C)c1=O (stereo not given)	1.4	0.47
112	Cn1c(=O)c2ccccc2n(CC(=O)N2CCCc3ccccc32)c1=O	0.76	1.4
113	CCCC(=O)NCc1cc(-c2nn(C)c(=O)c3ccccc23)ccc1C	1	-0.99
114	COc1ccc(CN2CC(=O)N(c3ccccc3OC)C2=S)cc1OC	0.13	0.62
